VDR inh: vitamin D3 receptor (human) inhibition | VDR-SRC2-3 peptide fluorescence polarization, 2 h | Potency, µM, inactives show max response, negative = inhibition, hits mostly inhibitors | hit rate 0.93% among 400,000; active = well fitted inhibition curve with a large enough effect; inconclusive = small, poorly fitted or top-dose-only effect, or another doubt; inactive = no such curve, though single readings can be large or run the other way; also: series mostly up to about 120 µM
Target sequence (P11473 whole entry, looked up): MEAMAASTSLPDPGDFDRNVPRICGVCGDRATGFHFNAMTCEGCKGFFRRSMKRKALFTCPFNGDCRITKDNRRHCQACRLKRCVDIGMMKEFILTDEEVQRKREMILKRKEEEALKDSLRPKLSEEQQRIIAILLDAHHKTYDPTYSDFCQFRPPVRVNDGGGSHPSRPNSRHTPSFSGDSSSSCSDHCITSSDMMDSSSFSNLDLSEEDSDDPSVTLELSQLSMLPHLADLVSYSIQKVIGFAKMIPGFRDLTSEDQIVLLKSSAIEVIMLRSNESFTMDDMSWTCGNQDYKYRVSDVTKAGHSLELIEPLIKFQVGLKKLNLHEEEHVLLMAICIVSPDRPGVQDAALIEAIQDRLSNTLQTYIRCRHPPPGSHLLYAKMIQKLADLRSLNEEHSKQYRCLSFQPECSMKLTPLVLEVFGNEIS
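Reagent solutions, kept cold and dark, are dispensed first; compounds are then pinned in at 23 nl, plates briefly spun, and incubated 2 h at ambient temperature. Inhibition of VDR–SRC2-3 peptide binding is read by fluorescence polarization.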
* = called active by the depositor; ? = inconclusive; & = joins results of further samples; [ ] = dose if it differs, or a comment. % is scaled to controls: 0 for no effect and ±100 for the full control effect; potency is read from the fitted curve at half-maximal effect.

No.	Compound	VDR inh
1	CCOC(=O)c1[nH]c(CN2CCN(c3ccc(OC)cc3)CC2)c(C(=O)OCC)c1C	-10.8%
2	Cc1nn(-c2ccccc2)c(Cl)c1C(=O)OCC(=O)NCCc1ccc(S(N)(=O)=O)cc1	-2.9%
3	O=C(NNC(=O)c1ccc(Br)cc1)c1ccncc1	-20.6%
4	COC(=O)c1cc2sccc2n1Cc1nc(-c2cccc(Cl)c2)oc1C	-13.7%&2.6%
5	Cc1ccc(S(=O)(=O)N(C)Cc2ccc(C(=O)N/N=C/c3ccc(OC(F)F)cc3)cc2)cc1	-25.5%
6	CN(CCC1CCOCC1)C(=O)C1CCC(=O)N(CCc2cccc(F)c2)C1 (centres undefined)	11.5%
7	Cc1cccc(NC(=O)CSc2cn(CC(=O)N3CCOCC3)c3ccccc23)c1C	8.3%
8	O=C(NCc1cccnc1)C1CCN(S(=O)(=O)N2CCOCC2)CC1	2.8%
9	CC(C)N(Cc1nc2ccccc2[nH]1)C(C)C	?
10	c1ccc2c(c1)OCC(c1csc3ncnc(N4CCOCC4)c13)O2 (centres undefined)	20.4%
11	C=C(C)C1CC=C(C)/C(=N/NC(=O)CCC(=O)Nc2ccccc2Cl)C1 (centres undefined)	10.5%
12	CCOC(=O)CC(=O)Nc1ccn[nH]1	-23.2%
13	O=C(OCC(=O)N1CCCC1)c1ccc(S(=O)(=O)Nc2ccccc2)cc1	4.2%
14	CC(=O)c1cccc(NC(=O)CSc2ccc(-c3ccco3)nn2)c1	?
15	COc1ccc(OC[C@@H](O)CNC(=O)c2cccc3c2C(=O)c2ccc(-c4ccc(F)cc4OCc4ccccc4)cc2S3(=O)=O)cc1	-0.2%
16	CCOC(=O)Nc1ccccc1C(=O)N1CCOCC1	-2.2%
17	CC(Oc1ccc(Cl)cc1Cl)C(=O)Nc1ccc(OCC(=O)O)cc1 (centres undefined)	7.4%
18	Cc1ccc(S(=O)(=O)CCc2nc3ccccc3[nH]2)cc1	-14.4%
19	Cc1noc(C)c1COc1ccc(C(=O)N2CCN(c3cccc(Cl)c3)CC2)cc1	8.2%
20	S=C(Nc1ccccc1)Nn1cnnc1	-17.1%
21	CCOCCCN(Cc1ccco1)C(=O)c1cc2c(=O)[nH]c3ccc(C)cc3c2s1	-13.6%&-15.1%
22	Cc1c(C(=O)n2cnc3ccccc32)cccc1[N+](=O)[O-]	13.4%
23	COc1ccc(S(=O)(=O)c2cc(NS(=O)(=O)c3ccc(Cl)cc3)c(C)c(C)c2O)cc1	19.5%
24	O=C(N/N=C/c1cccnc1)c1cc(-c2ccc(Cl)cc2)nc2ccccc12	-11.9%
25	Cc1nn(CC(O)CN2c3ccccc3Sc3ccccc32)c(C)c1Br (centres undefined)	?
26	CCCCOc1c(Cl)cc(C(=O)N(C)CC(=O)Nc2ccc(N3CCOCC3)cc2)cc1OCC	12.6%
27	COc1ccc(N(CC(=O)NC(C)(C)C)C(=O)c2ccco2)cc1	3.9%
28	O=C(Nc1ccc(F)cc1F)N1CCN(C(=O)c2ccco2)CC1	-0.5%
29	Cc1ccc(OCCn2c(-c3ccc(Cl)cc3)nc3ccccc3c2=O)c(C)c1	-13.5%
30	CCOc1cccc(/C=N/NC(=S)Nc2ccccc2[N+](=O)[O-])c1O	-13.9%
31	CCN(CC(=O)Nc1ccc(NC(C)=O)cc1)C(=O)c1ccc(N2CCCC2)c([N+](=O)[O-])c1	10.4%
32	O=c1c(-c2cc(F)cc(F)c2)nc2cnc(N3CCNCC3)nc2n1Cc1cccs1	44.4%[activator]
33	Cc1ccc(Cl)c(OC(=O)Cn2cnc3c2c(=O)n(C)c(=O)n3C)c1	1.9%
34	COc1cc(N)ccc1-c1cc2ccccc2oc1=O	2.9%
35	CCN(CC)c1ccc(-c2nc(-c3ccncc3)no2)cc1[N+](=O)[O-]	5.6%
36	Cc1ccc2c(c1)c1c(c(=O)n(-c3ccccc3C)c(=O)n1CC(=O)NCCC1=CCCCC1)n2C	3.4%
37	O=C(NCCc1ccco1)C(=O)NCC1OCCCN1S(=O)(=O)c1ccc(Cl)cc1 (centres undefined)	-1.0%
38	NS(=O)(=O)c1ccc(NC(=O)CSc2nc3ccccc3[nH]2)cc1	3.8%
39	Cc1ccc(CN2C(=O)N(c3ccccc3)C(=O)C2CC(=O)Nc2ccccc2)cc1 (centres undefined)	-2.3%
40	COC(=O)c1ccccc1NC(=S)NC(=O)C1CCCCC1	-30.1%
41	O=C(Oc1ccccc1C(=S)N1CCCCC1)c1cc([N+](=O)[O-])cc([N+](=O)[O-])c1	89.1µM*
42	Cc1ccc(C(=O)Nc2c3c(nn2C(C)(C)C)CS(=O)(=O)C3)cc1[N+](=O)[O-]	-4.3%
43	CCOC(=O)/C=C/C(=O)OCC(=O)NCc1ccccc1	-6.0%
44	O=C1CCC(C(=O)N2CCCC2)CN1CCc1cccc(F)c1 (centres undefined)	-14.4%
45	O=C(O)c1ccc(S(=O)(=O)N2CCC3(CC2)CC(=O)c2ccccc2O3)cc1	1.7%
46	CCCNC(=O)c1ccc(N2CCC3(CC2)CC(c2ccc(Cl)cc2)=NO3)c([N+](=O)[O-])c1	-23.9%
47	COc1cc(CN(CCc2c(C)[nH]c3ccc(C)cc23)C(=S)NC(C)(C)C)cc(OC)c1OC	-2.3%
48	Cc1cc(/C=C(\C#N)C(=O)OCC(=O)Nc2ccc(OC(F)F)cc2)c(C)n1CC(C)C	2.1%
49	Cc1ccc(Nc2nnc(-c3ccc(C)c(S(=O)(=O)N4CCOCC4)c3)c3ccccc23)cc1	-17.9%
50	CS(=O)(=O)N(CC(=O)N1CCCC1)Cc1ccccc1	0.0%
51	c1ccc2c(c1)nnn2-c1ncnc2sccc12	4.1%
52	C=CCNC(=S)N/N=C(\C)c1cccnc1	-19.5%
53	O=C(Nn1cnnc1)c1cc(Cl)cc(Cl)c1	-12.2%
54	COc1cccc(-c2nnc(SCC(=O)N(C)C3CCCCC3)o2)c1	3.5%
55	CCOC(=O)CCSc1nc(-c2ccc3c(c2)OCO3)cc(C(F)(F)F)c1C#N	-0.6%
56	Cc1cccc(NC(=O)CSc2nc3ccccc3c3nc(CCn4cncc4C)nn23)c1	16.9%
57	Cc1ccc(-c2nnc(-n3nc(C)cc3C)c3ccccc23)cc1	-9.4%
58	CCCCOC(=O)c1ccc(NC(=O)CSc2nc3c(c(=O)[nH]2)CCCC3)cc1	8.5%
59	Cc1noc(/C=C/N(C)C)c1S(=O)(=O)N1CCCC(C(=O)NC2CCCCC2)C1 (centres undefined)	-12.9%
60	CCOC(=O)N1CCc2c(sc3c2c(=O)n(Cc2ccccc2)c(=O)n3CC(=O)Nc2cccc(C)c2)C1	-8.5%

Going on with the list:
No.	Compound	VDR inh
61	CSc1ccc(CN2CCN(C3CCCC3)C(CCO)C2)cc1 (centres undefined)	0.1%
62	COCCN(C(=S)Nc1c(C)cccc1C)C(C)c1ccco1 (centres undefined)	-5.3%
63	COc1ccc(C(=O)N2CCc3c([nH]c4ccccc34)C2C(F)(F)F)cc1 (centres undefined)	6.5%
64	CCOP(=O)(c1c(F)c(F)c(F)c(F)c1F)C1(O)CCCCC1 (centres undefined)	1.7%
65	COC(=O)c1sc2nc(C)cc(-c3ccccc3)c2c1N	-7.7%
66	CCCNC(=O)CSc1c2c(nc3ccc(Cl)cc13)CCCC2	?
67	COc1ccc(C2NC(=O)N(C)C3=C2C(=O)N(c2cccc(Cl)c2)C3)cc1 (centres undefined)	-1.6%
68	COc1ccc(N=Cc2c(O)[nH]c3ccccc23)cc1OC	1.6%
69	Cc1cc(S(=O)(=O)N(Cc2ccccc2)Cc2ccc(N(C)C)cc2)ccc1-n1cnnn1	5.6%
70	COC/C=C/C1=CC2=CC(=O)C(C)(OC(=O)c3cnc4ccccc4n3)C(=O)C2=CN1Cc1ccco1 (centres undefined)	-9.5%
71	COc1cc(/C=N\NC(=O)C2CC3C=CC2C3)ccc1O (centres undefined)	-29.8%
72	COc1ccccc1N(C)S(=O)(=O)c1ccc(Cl)c(C(=O)NCC2(N(C)C)CCCCC2)c1	-15.6%
73	CC(=O)N1CCOc2ccc(S(=O)(=O)Nc3ccc(Cl)cn3)cc21	-7.8%
74	OCc1nnn(-c2cccc(C(F)(F)F)c2)c1CO	-13.4%
75	O=C(c1ccc(NS(=O)(=O)c2ccc(Cl)c(Cl)c2)cc1)N1CCOCC1	-14.1%
76	Cc1ccc(-n2ncc3c2CCCC3NC(=O)CCc2c(C)noc2C)cc1C (centres undefined)	9.5%
77	O=C(C1=C[C@H](c2ccc(Br)cc2)C[C@H](OCCCCO)O1)N1CCN(Cc2ccc3c(c2)OCO3)CC1	5.2%
78	CCC(C)(C)NC(=O)C(c1ccc(OC)cc1)N(C(=O)CCC(=O)Nc1cc(C)on1)c1cc(OC)ccc1OC (centres undefined)	-13.6%
79	CC(C)(C)C1CCC(C(=O)Nc2ccc(N3CCOCC3)cc2N2CCOCC2)CC1 (centres undefined)	5.3%
80	CCCN1C(=O)N(C)C(N(O)C(=O)NC)C1(C)C (centres undefined)	15.8%
81	Cc1cccc(NC(=O)CN2C(=O)N/C(=C\c3ccc(N4CCOCC4)cc3)C2=O)c1	-4.7%
82	CC(C)CNC1CCS(=O)(=O)C1 (centres undefined)	6.4%
83	O=C(CCN1C(=O)/C(=C/c2ccccc2)SC1=S)Nc1cccnc1	?
84	OC(CN1CCCC1)Cn1ccc2ccccc21 (centres undefined)	-1.7%
85	O=S(=O)(Nc1ccccc1Cl)c1ccc(-c2ccccn2)s1	1.7%
86	CCOC(=O)c1nnn(-c2nonc2N)c1CS(=O)(=O)c1ccccc1	18.8%
87	COc1ccc2nc(NC(=O)CSc3nnnn3C)sc2c1	8.9%
88	CCc1cccc(NC(=S)Nc2cccc3ccccc23)c1	-15.2%
89	CN(CCOc1ccccc1)C(=O)C1CCC(=O)N(CCc2ccc(Cl)cc2)C1 (centres undefined)	-5.3%
90	Cc1ccnc(NS(=O)(=O)c2ccc(NC(=O)CCc3ccccc3)cc2)n1	-15.7%

(continued)
cpd	mol	VDR inh
91	Cc1ccc(C2CC(=O)C=C(Nc3ccc(Cl)cc3)C2)cc1 (centres undefined)	-12.9%
92	Clc1ccc(-[n+]2c(-c3cccc(Br)c3)[nH]c3nc4ccccc4nc32)cc1	0.7%
93	Cc1cc(C)cc(OC(C)C(=O)Nc2c(C(=O)c3ccccc3)oc3ccccc23)c1 (centres undefined)	-7.5%
94	COc1ccc(CS(=O)(=O)CC(C)(O)c2ccccc2Cl)cc1 (centres undefined)	-11.8%
95	Cc1nnc(-n2ncc(C#N)c2N)c2nn(-c3cccc(Cl)c3)c(C)c12	9.0%
96	COc1ccc(N(CC(=O)N2CCOCC2)S(C)(=O)=O)cc1Cl	-9.1%
97	O=C1c2ccccc2[C@@H]2C[C@@H](O)[C@H](Nc3ccccc3)CCN12	0.1%
98	O=C(CSc1nc2ccc(Nc3nc(N4CCCC4)nc(N4CCCC4)n3)cc2s1)NCc1ccco1	-14.8%
99	COc1ccc(N2CC(NC(=O)/C=C\c3ccc(OC)c(OC)c3)CC2=O)cc1 (centres undefined)	-5.4%
100	O=C(NNC(=S)Nc1ccc(Br)cc1)c1ccccc1Br	?
101	Cn1nc(C(C)(C)C)c([N+](=O)[O-])c1C(=O)Nc1cccc2ccccc12	-0.2%
102	COc1ccccc1CNS(=O)(=O)c1ccc(S(=O)(=O)NC2CC2)cc1	-25.7%
103	Cc1cc(C)n(-c2cccc3cccnc23)n1	-5.3%
104	O=C(Nc1ccc(Cl)cc1)c1ccc2ncsc2c1	-12.8%
105	CC(OC(=O)C1CCN(c2ccc(C(F)(F)F)cn2)CC1)C(=O)Nc1cccc([N+](=O)[O-])c1 (centres undefined)	5.4%
106	Oc1cc(-c2cccnc2)cc2cccnc12	14.2%
107	O=C(c1ccc(COc2ccc(Cl)cc2)o1)N1CCN(Cc2ccc3c(c2)OCO3)CC1	-5.4%
108	CCc1ccc(S(=O)(=O)c2cnc3ccc(OC)cc3c2N2CCCC(C)C2)cc1 (centres undefined)	-14.7%
109	O=C(NC1=NCCS1)c1ccccc1Cl	17.1%
110	CN(CC(=O)Nc1ccccc1Br)C(=O)Cn1[nH]c(=O)c2ccccc2c1=O	-7.2%
111	CS(=O)(=O)N1CCN(C(=S)NCc2ccc(F)cc2)CC1	-17.4%
112	O=C(CCCCO)c1ccc(O)c(Cl)c1	-9.5%
113	COc1ccc(-c2nnc(SCC(=O)NCCc3ccccc3)nc2-c2ccc(OC)cc2)cc1	3.2%
114	Cc1ccccc1NC(=O)CC1SC(=O)N(c2ccccc2)C1=O (centres undefined)	9.9%
115	Cc1nn(Cc2c(F)c(F)c(F)c(F)c2F)c(C)c1NC(=O)c1c([N+](=O)[O-])cnn1C	3.6%
116	O=C(CN1C(=O)/C(=C/c2ccc(Cl)cc2)SC1=S)NC1C=CS(=O)(=O)C1 (centres undefined)	-6.9%
117	COc1ccc(S(=O)(=O)N2CCC(C(=O)NCc3cccnc3)CC2)cc1Cl	12.7%
118	Cc1cccc(N2C(=O)N(c3ccccc3C)C3CS(=O)(=O)CC32)c1 (centres undefined)	4.2%
119	Cc1ccc(OCCOCCn2cnc3ccccc3c2=O)c([N+](=O)[O-])c1	-17.9%
120	CC1(C)CC2(CCCN3C(=O)CSC32)CCS1 (centres undefined)	5.8%
121	O=C(NCC(c1ccco1)N1CCCCC1)c1cnc(Cl)c(Cl)c1 (centres undefined)	4.1%
122	CCCN(C(=O)c1cc2c(=O)oc3ccc(C)cc3c2s1)c1ccc(OCC)cc1	-17.1%

A portion of the library; rates above refer to the full screens.
